From PubChem
Kir21 block = blocks the mouse Kir2.1 inward-rectifier potassium channel | hit rate 0.85% among 310,000 | HEK293-Kir2.1, FluxOR thallium flux fluorescence; active compounds read low | AID 1672 | B-score at 10 µM | P35561;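 active = fluorescence ratio B-score at or below minus 3 SD of library scores, with starting-brightness B-score within 2 SD, cut at about -4.2 in these data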;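 note: channel flux triggered by added potassium and thallium sulfate stimulus; B-score of peak minus minimum fluorescence over baseline after thallium stimulus; more negative B-score means stronger Kir2.1 block with less thallium influx; some compounds called inactive have numbers as strong as hits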
Target sequence (P35561 whole entry, looked up): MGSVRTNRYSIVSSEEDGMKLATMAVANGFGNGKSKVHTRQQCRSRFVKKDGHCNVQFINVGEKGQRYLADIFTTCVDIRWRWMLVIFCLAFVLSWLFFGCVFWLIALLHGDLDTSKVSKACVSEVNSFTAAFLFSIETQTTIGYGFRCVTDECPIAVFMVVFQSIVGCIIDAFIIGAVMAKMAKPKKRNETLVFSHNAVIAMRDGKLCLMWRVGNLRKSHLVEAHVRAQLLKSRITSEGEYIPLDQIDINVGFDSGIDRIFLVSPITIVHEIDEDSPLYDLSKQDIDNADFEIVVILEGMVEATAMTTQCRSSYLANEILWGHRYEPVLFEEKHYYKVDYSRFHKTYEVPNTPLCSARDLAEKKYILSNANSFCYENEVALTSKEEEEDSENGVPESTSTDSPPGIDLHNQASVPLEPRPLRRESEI
The depositor's hits bear a star. This is a subset, and most or all hits are left out here.

SMILES	Kir21 block
CCCCNC(=O)CSc1nc2cc3c(cc2c(=O)n1CCCC(=O)NCCc1ccc(OC)c(OC)c1)OCO3	0.71
Cc1ccc(NC(=O)c2cccc(NC3=NC4CS(=O)(=O)CC4S3)c2)cc1 (stereo unspecified)	1.23
CC(=O)c1ccc(S(=O)(=O)N(CCCO)Cc2cc3cc4c(cc3[nH]c2=O)OCCO4)cc1	-0.2
CCCC(O)(c1ccc(OC)cc1)C(CN1CCOCC1)c1ccccc1 (stereo unspecified)	-0.05
CC(C)CC(=O)Nc1c2c(nn1-c1cccc(Cl)c1)CS(=O)(=O)C2	-1.74
OC(CNc1ccccc1)Cn1ccc2ccccc21 (stereo unspecified)	-1.85
COc1ccc2[nH]c3c(c2c1)CCNC3=O	-1.63
Cc1ccc(NS(=O)(=O)c2ccc(Cl)s2)cc1S(=O)(=O)N(C)C	-0.15
Cc1ccccc1C(=O)Nc1ccc(N2CCOCC2)nc1	2.27
COc1ccc(/C=C/C(=O)NCCc2c[nH]c3ccccc23)cc1OC	0
COc1ccccc1CNC(=O)c1cnn2c(C(F)F)cc(C)nc12	0.4
Cc1c(OCC(=O)NCc2ccccn2)ccc2c3c(c(=O)oc12)CCCC3	1.36
C/C(=N\NC(=O)c1ccc(C)cc1)C1C(=O)c2ccccc2C1=O	-0.95
CCCOc1ccc(N2C(=O)CC(N(CCc3ccccc3)C(=O)c3ccccc3)C2=O)cc1 (stereo unspecified)	-0.41
O=C(CSc1nnc(-c2ccccn2)o1)Nc1ccccc1C(F)(F)F	-0.7
O=C(Nc1nc(-c2ccc(S(=O)(=O)N3CCCCCC3)cc2)cs1)c1ccccc1	0.48
O=C(Nc1ccccc1)Nc1ccc(C(=O)N2CCOCC2)cc1	0.53
NC(=O)c1ccccc1NC(=O)Cc1cccs1	1.3
O=C(COC(=O)c1ccc(O)cc1)NCC1CCCO1 (stereo unspecified)	1.38
CCc1ccc(NC(=O)c2cc(C(C)C)on2)cc1	-0.08
CSc1nsc(SCC(=O)Nc2ccc(OC(C)=O)cc2)n1	2
CCOC(=O)c1ccc(NC(=O)c2nc[nH]c2C(=O)N[C@@H](CC(C)C)C(=O)OCc2ccccc2)cc1	0.75
Cn1c(=O)n(C)c2cc(/C=C(/C#N)C(=O)NCc3ccco3)ccc21	0.72
CCOc1cc(-c2nc3n(c(=O)c2C#N)CCS3)ccc1O	0.25
Cc1ccc(-c2nnc(CSc3nc4cc5c(cc4cc3C)OCO5)o2)cc1	-1.57
O=C(Cn1nnc2ccccc21)NCc1ccccc1	0.09
CCC(C(=O)NC(C)(C)C)N(Cc1ccco1)C(=O)Cn1nnc(-c2ccc(F)cc2)n1 (stereo unspecified)	-0.9
COC(=O)CN1C(=O)N/C(=C/c2ccc(OC)c(C)c2OC)C1=O	1.5
COCCn1c(SCC(=O)Nc2ccccc2OC)nc2c(oc3ccccc32)c1=O	0.79
O=C(O)/C=C/C(=O)Nc1ccc(S(=O)(=O)N2CCCC2)cc1	-0.56
COCCCn1c(C)cc(C(=O)COC(=O)CCc2nc3ccccc3c(=O)[nH]2)c1C	-0.37
Cc1cn(-c2cc(C(=O)Nc3ccc(C)c(NC(=O)N4CCNC4=O)c3)cc(C(F)(F)F)c2)cn1	-0.41
CCCCNC(=O)c1nn(-c2ccccc2OC)c(=O)c2ccccc12	0.15
Cc1oc(-c2ccccc2Cl)nc1CN1CCCN(C(=O)c2ccco2)CC1	0.08
O=C(Cc1cccs1)Nc1ccon1	1.1
COC(=O)c1ccccc1NC(=S)N1CCOCC1	1.36
Cc1ccc(C(=O)NC(NC(=O)c2ccc(C)cc2)c2cccc([N+](=O)[O-])c2)cc1	-3.36
Cc1ccc(S(=O)(=O)Cc2ccc(C(=O)NCc3ccc4c(c3)OCO4)o2)cc1	-0.36
O=C(NC1c2ccccc2-c2ccccc21)c1ccco1	-0.95
C/C(=N\NC(=O)c1c(-c2ccccc2Cl)noc1C)c1cccc(NC(=O)C(C)C)c1	-1.16
COc1cccc(-c2nnc(N)o2)c1	1.8
CCC(C)(C)C1CCC2(CC1)NC(=S)N(c1ccccc1)N2 (stereo unspecified)	0.94
O=C(NCc1cccnc1)c1cnc2n(c1=O)CCS2	-0.94
CCc1cc(C(=O)N2CCOCC2)c(NC2=NS(=O)(=O)c3ccccc32)s1	0.27
COc1oc(-c2ccccc2C)nc1C(F)(F)F	-1.27
CCOc1ccc(/C=C2\SC(N3CCCCC3)=NC2=O)cc1	1.17
CCOc1ccccc1C(=O)N/N=C/c1cccc2cccnc12	-2.33
Nc1c(C(=O)N/N=C/c2ccccc2Cl)oc2nc(-c3ccccc3)cc(-c3ccco3)c12	-3.1
Cc1cccc(C(=O)OC2CCN(C)CC2)c1	1.49
COc1ccc(S(N)(=O)=O)cc1N(C)S(=O)(=O)c1ccccc1	-0.92
Following part:
SMILES	Kir21 block
CCN(CC)CCNC(=O)c1cn(C)c2ccc(S(=O)(=O)N(C)C3CCCCC3)cc2c1=O	1.03
CC(C)Nc1nc(Cl)nc(NCCOc2ccccc2)n1	-0.49
Cc1cccc(OCc2n[nH]c(=S)n2-c2ccccc2)c1	-0.39
COc1ccc(-c2nnnn2CCc2ccccc2)cc1	0.86
COc1ccc(CCNC(=O)c2csc3c2CCCC3)cc1OC	-0.02
COc1ccccc1NC(=O)Cn1nnc(C(=O)NCc2ccc3c(c2)OCO3)c1N	-2.57
Cc1cc(C)nc(OC(=O)c2ccc(Cl)cc2Cl)n1	-2.07
Cc1cccc(NC(=O)CC2SC(=NC3CCCCC3)NC2=O)c1 (stereo unspecified)	0.93
COCCNC(=O)/C(C#N)=C/c1nc(N(C)C)n(-c2ccc(F)cc2)c1Cl	-0.48
O=C(CCc1nnc2ccc(NCc3ccco3)nn12)N1CCN(c2ccccc2)CC1	0.02
CCOc1ccc(S(=O)(=O)n2c([N+](=O)[O-])cnc2C)c(C)c1C	-1.33
Cc1ccc(C(=O)OCC(=O)N(C)C2CCS(=O)(=O)C2)cc1S(=O)(=O)N1CCOCC1 (stereo unspecified)	1.07
CC1CN(c2ccc([N+](=O)[O-])cc2F)CCN1C(=O)c1ccco1 (stereo unspecified)	-1.03
COc1ccc(N(CC(=O)NC2CCCCC2)C(=O)CNC(=O)c2cccs2)cc1	-1.89
Cc1cccc2c1nc(-c1ccccc1)n1nnnc21	1.73
CN(Cc1nc2ccccc2c(=O)[nH]1)C(=O)c1ccc(S(=O)(=O)N(C)C)cc1	-0.74
COC(=O)c1ccccc1NC(=O)CNC(=O)c1ccc(OC)c(OC)c1	0.2
N#CCCN1CCN(C(=S)c2ccc(-c3ccc(Cl)cc3)o2)CC1	0.13
COc1ccc(C(=O)Nc2nc3cc4c(cc3s2)OCO4)c(OC)c1	-0.15
CCc1cccc(CC)c1N(COC)C(=O)Cn1cnc2ccccc21	-0.35
COCCNC(C)C(=O)C12CC3CC(CC(C3)C1)C2 (stereo unspecified)	-0.69
CCN(CC)CCn1c2c(c(SCC(=O)Nc3nc(C)cs3)nc1=O)CCCC2	-1.32
COc1cc(OC)c(C(=O)NC2CCCCCC2)cc1OC	0.81
CC1CCN(C(=O)C2(NC(=O)Nc3cccc(F)c3)CCCCC2)CC1	-1.24
CCOC(=O)c1[nH]c2ccc(OC)cc2c1NC(=O)C(C)N1CCSCC1 (stereo unspecified)	-0.03
CN(C)/C=C/C(=O)c1cc(N2CCOCC2)ccc1[N+](=O)[O-]	0.59
Cc1ccc(NC(=O)CN(C)C(=O)Cc2ccc(Cl)cc2Cl)cc1	-0.27
Cc1cc(C)cc(OCc2nnc(SCC(=O)N3CCN(c4ccccc4)CC3)o2)c1	-1.73
CCN(CC)CCNC(=O)c1c(O)c2cccc3c2n(c1=O)CCC3	1.07
CCOc1ccc2nc(NC(=O)C(CC)Sc3nc(C)cc(=O)[nH]3)sc2c1 (stereo unspecified)	1.09
O=C(N/N=C/c1cn(-c2ccccc2)nc1-c1cccs1)c1ccncc1	-1.49
C=CCNc1sc(C(=O)c2ccc(C)cc2)c(N)c1C#N	1.87
COc1cc(SC)ccc1C(=O)Nc1ccc2c(c1)CCN2S(C)(=O)=O	0.26
CC(=O)c1c(COC(=O)c2ccc(Cl)cc2)nc2ccccc2[n+]1[O-]	0.04
COc1ccc(N2C(=O)C(CC(=O)Nc3ccccc3)N(Cc3ccc(OC)c(OC)c3)C2=O)cc1 (stereo unspecified)	1.19
COC(=O)[C@@]12CCCCN1[C@H](c1ccc(-c3ccc(OC)cc3)cc1)[C@H]1C(=O)N(C)C(=O)[C@H]12	0.48
O=C(CN1CCCCCC1)Nc1ccccc1	-0.24
Clc1ccc(Sc2ccc(/C=N/n3cnnc3)o2)cc1	0.05
COc1ccc(NC(=O)CSc2nc3[nH]ncc3c(=O)n2-c2ccccc2C)cc1OC	-0.67
COc1ccc(C2C(C(C)=O)=C(O)C(=O)N2Cc2cccnc2)cc1 (stereo unspecified)	0.06
CCn1cc(/C=C(\NC(=O)c2ccc(OC)c(OC)c2)C(=O)NCCCO)c2ccccc21	-0.1
Cc1ccccc1NC(=S)N(Cc1cccs1)C1CCCCC1	1.74
O=C(NCc1ccco1)C1CCC(CNS(=O)(=O)c2cccc3cccnc23)CC1 (stereo unspecified)	0.02
O=C(CN1CCOCC1)N1N=C(c2cccs2)CC1c1cccs1 (stereo unspecified)	0.61
COc1ccc(CCNC(=O)COc2cc(=O)n(C)c3ccccc23)cc1OC	1.55
O=C(O)c1ccn2c(C(=O)c3ccccc3)c(-c3ccccc3)cc2c1	1.2
CCN(CC)CCNCc1cc(Cl)ccc1OCc1ccccc1F	-0.93
COc1ccc(C(=O)NCCN2CCOCC2)c(OC)c1	1.39
CCCCN(C)C(=O)c1nc2ccccn2c1CN1CCN(c2cnccn2)CC1	-0.05
Cc1ncc(CSCC(=O)Nc2cc(C(F)(F)F)ccc2Cl)c(CO)c1O	-1.13
(listing goes on)
SMILES	Kir21 block
CCn1c(SCC(=O)c2ccc(Cl)cc2)nnc1-c1ccoc1C	-3.34
O=C(O)CCSc1nc(C(F)(F)F)cc(=O)n1-c1ccccc1	-0.84
O=C(Nc1cccc(F)c1)Nc1ccccn1	-0.02
Cc1ccc2cc([N+](=O)[O-])ccc2n1	1.15
COc1ccc(C2C(=O)c3ccccc3C2=O)c(OC)c1	1.17
CCOC(=O)c1cccc(NC(=O)c2ccc(F)cc2F)c1	1.34
Cc1ccccc1NC(=O)Nc1nnc(Cc2ccc([N+](=O)[O-])cc2)s1	-0.39
Cc1nnc(SC(C(=O)Nc2cc(Cl)cc(Cl)c2)c2ccccc2)[nH]c1=O (stereo unspecified)	-1.5
CCCS(=O)(=O)Nc1c(C(=O)O)[nH]c2ccccc12	0.1
COc1cccc(CNc2ccc(Br)cn2)c1O	-0.81
CC(C)CCSc1nnc(Cn2c(=O)sc3ccccc32)n1C	-0.5
COc1cc(-c2noc(CCC(=O)NC3CCCCC3)n2)cc(OC)c1OC	1.16
Cc1cnc(CNC(=O)c2ccc3oc(Cc4ccccc4)nc3c2)[nH]1	-0.87
CC(=O)c1cc2c(cc1NC(=O)c1cc3nc(C(C)C)cc(C(F)(F)F)n3n1)OCO2	1.16
CCOC(=O)CCC(NC(=O)c1cncc(O)c1)C(=O)OCC (stereo unspecified)	1.94
O=C(CCCO)NNc1c2ccccc2nc2ccccc12	-1.44
CCC(C)NC(=O)c1ccc(CNS(=O)(=O)c2ccc3c(c2)C(C)(C)C(=O)N3C)cc1 (stereo unspecified)	0.5
